Screening data from PubChem.
Sa ugtP lethal: compounds lethal to S. aureus RN4220 ugtP deletion mutant; growth inhibition, % (concentration not given with the values); 0.54% of 330,000 active; OD600 growth, 16 h; some inactives read as strong as hits; AID 1259309;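 active = z-score under -3 and OD600 up to 0.15 on both plates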;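 also: plate controls were untreated wells for no effect and antibiotic for full effect; wells of about 80 µL received 100 nL stock; the first replicate is given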
Mtb hypoxia inh: inhibitors of hypoxia-regulated fluorescent reporter in Mycobacterium tuberculosis; M. tuberculosis hypoxia-regulated fluorescent reporter, fluorescence; fluorescence inhibition, % (concentration not given with the values); 0.1% of 300,000 active; AID 1159583;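 active = 35 to 45% if threefold the growth effect, above 45% if 1.5-fold the growth effect; inactive = the rest, general growth blockers included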;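 also: wells of about 50 µL received 100 nL stock; 0% = vehicle wells and 100% = reference inhibitor wells; whole bacteria with a GFP reporter of the hypoxia response; strong numbers were not always called active; many hits fall short of the cut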
Sa RN4220 lethal: S. aureus RN4220 growth inhibition; OD600, 16 h; inhibition, % (concentration not given with the values); 0.33% of 330,000 active; AID 1259311;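 active = z-score of -3 or lower and OD600 up to 0.18 on both plates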;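 also: plate controls were untreated cells for no effect and reference antibiotic for full effect; stock transfer was 100 nL into about 80 µL; one replicate is shown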
BJeLR lethal: kills HRASV12-expressing BJeLR cells; inhibition, % (concentration not given with the values); BJeLR (HRASV12) viability, CellTiter-Glo ATP luminescence, 48 h; reference of the scale not given here; 0.17% of 300,000 active;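 active = replicate mean above 50%; inconclusive = above 50% but judged a plate artefact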;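 also: 50 nL library stock added to about 25 µL; numbers are from one replicate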
PrP 5UTR inh: inhibition of PrP 5' UTR reporter expression | 0.35% of 340,000 active | cell-based PrP 5' UTR mRNA reporter, plate reader | inhibition, % (test concentration not listed);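 active = every replicate at 50% or more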;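 also: 0 = median of the neutral control wells; tested in H4 reporter cells; numbers are from one replicate; inactives centre near -14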
Autofluor counter: counter-screen for toxin protease inhibitors: compound fluorescence; compound autofluorescence counterscreen, microsphere flow cytometry; stronger effect = higher value; fluorescence intensity (no concentration beside the values); 3.1% of 360,000 active; AID 624483;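 active = at least 3 SD above the mean of all compounds, about 16000 in these data; inconclusive = too few beads counted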;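 also: 100 nL of 1 mM stock went into each well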
Mtb hypoxia inh growth: second read-out of Mtb hypoxia inh, no call of its own (marks repeat the call); growth inhibition, %; measured here: M. tuberculosis growth (absorbance);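 0% = vehicle and 100% = reference antibiotic; read after six days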
* hit, by the source's call; ? = inconclusive; . = no result given; & = joins results of further samples.

Below each compound – BJeLR lethal	Autofluor counter	Mtb hypoxia inh	Mtb hypoxia inh growth	Sa ugtP lethal	PrP 5UTR inh	Sa RN4220 lethal
1) O=C(CN1CCN(C(=O)c2ccco2)CC1)NCc1ccc(Cl)cc1
  -3	6462	8	2	1	-9	-0.1
2) CCCCn1c(N)c(N(CC(C)C)C(=O)c2ccc(OC)c(S(=O)(=O)N3CCOCC3)c2)c(=O)[nH]c1=O
  .	4013	6	5	5	-25	4.4
3) Cc1ccc(S(=O)(=O)N/N=C/c2ccccc2O)cc1
  5	3730	.	.	.	-41	.
4) CC(C)CC1Nc2ccc(C(=O)NCCCN3CCCCC3C)cc2NC1=O (stereo not drawn)
  6	6299	9	7	7	-13	0.0
5) CS(=O)(=O)c1ccc(NC(=O)c2ccc3c(c2)S(=O)(=O)N=C2CCCCCN23)cc1
  -5	5507	-9	5	-1	-6	-0.5
6) CCc1noc(C)c1C(=O)N1CCCSC1=Nc1ccccc1
  6	?	5	1	9	-14	7.7
7) CN1CCN(c2ccc(S(=O)(=O)N3CCCCC3)cc2NC(=O)COc2ccc([N+](=O)[O-])cc2)CC1
  2	?	8	0	-4	-17	5.0
8) CCOc1ccc(C(=O)COC(=O)c2cc(=O)[nH]c3ccccc23)cc1
  12	4009	4	1	0	-15	1.3
9) C=C(C)C(=O)Nc1ccc(NC(C)C)cc1
  2	3638	5	5	3	-12	2.8
10) Cc1sc(N2C(=O)C3C(C2=O)[C@H]2C=C[C@@H]3C2)c(C#N)c1C (stereo partly drawn)
  10	6145	-2	10	-1	-21	4.2
11) O=[N+]([O-])c1ccc(N/N=C/c2c[nH]c3ccccc23)cc1
  0	5107	.	.	.	-58	.
12) COc1ccccc1/C=C/CN1CCC(n2nccc2NC(=O)CCc2ccccc2)CC1
  5	5817	-1	5	-6	-18	-1.9
13) COc1cccc(CNC(=O)C2CCN(C(=O)N3CC(C)Oc4ccccc43)CC2)c1 (stereo not drawn)
  2	4239	9	7	-1	-5	-6.8
14) CCCCCCCCNC(C)C(O)c1ccc(SC(C)C)cc1 (stereo not drawn)
  2	6106	.	.	.	-18&-31	.
15) COCCN(C(=O)COc1ccccc1)c1nnc(-c2cccnc2)s1
  1	3343	.	.	-1	-24	1.0
16) CCOC(=O)c1csc(NC(=O)c2ccc(OCC)cc2)n1
  3	4844	-6	2	6	-7	4.3
17) COc1ccc(C(=O)Nc2ccccc2C(=O)N2CCOCC2)cc1
  1	5984	-2	-14	14	-3	2.8
18) COc1cc(CCC(=O)OCc2ccccc2C#N)cc(OC)c1OC
  2	2979	10	6	15	-11	5.1
19) CC(=N/N=C1/NC(=O)CC(C(=O)O)S1)c1cccs1 (stereo not drawn)
  .	.	3	-1	1	.	2.9
20) CCOC(=O)C1CCN(C2CC(=O)N(c3cccc(Cl)c3)C2=O)CC1 (stereo not drawn)
  2	5718	3	7	-1	-18	3.2
21) CCOCCCNC(=S)Nc1ccc2nc(N3CCCC3)cc(C)c2c1
  2	10297	2	2	10	-8	2.6
22) O=C(/C=C/c1ccccc1)c1ccc2ccccc2c1
  .	2880	15	6	13	-40	1.3
23) N#Cc1cnn(-c2ccccc2)c1N
  -9	10403	-3	-1	-3	-11	-2.0
24) O=S(=O)(CCN1C=CC(C(F)(F)F)=NCC1)c1ccc(F)cc1
  3	?	-14	-6	3	-33	1.9
25) O=C1CCC(C(=O)NCc2cccnc2)N1 (stereo not drawn)
  -3	3273	.	.	1	-9	-0.3
26) O=C1CN(C(=O)c2cc3ccccc3o2)c2ccccc2N1
  -14	7731	-2	0	-1	-22	7.1
27) COCCNC(=S)N/N=C/c1ccccc1C(=O)O
  11	3579	.	.	.	-14	.
28) S=C(NN=Cc1ccc2ncccc2c1)Nc1ccccc1
  .	.	6	9	-2	.	3.6
29) O=C(/C=C/c1ccccc1[N+](=O)[O-])NCC1CCCO1 (stereo not drawn)
  -19	2015	3	13	0	-21	2.6
30) CCOC(=O)N1CCN(C(=O)Nc2ccccc2)CC1
  -1	4512	0	0	3	-13	2.1
31) CCC(=O)Nc1ccc(C(=O)NNC(=O)Cc2ccccc2)cc1
  4	2444	9	1	6	-23	-0.8
32) O=C(N/C(=C/c1cccs1)C(=O)N1CCCCCC1)c1ccccc1
  -21	8455	8	2	9	-18	5.9
33) Cc1nn2c([nH]c(=O)c3ccccc32)c1C=O
  2	10895	1	3	-6	-28	4.6
34) CCN1C(=O)C2(SC(NC(C)=O)=NN2C(C)=O)c2cc(C)cc(C)c21 (stereo not drawn)
  -4	10523	-3	4	12	-29	3.2
35) CC(C)CNC(=O)COC(=O)c1ccc(Cl)c(S(=O)(=O)N2CCc3ccccc32)c1
  -2	2742	14	6	4	-5	8.9
36) Cc1ccccc1C(=O)Nc1cccc(N)c1
  6	3851	.	.	1	-4	0.4
37) CCN1CCN(C(c2cccs2)C(C)NC(=O)C(C)C)CC1 (stereo not drawn)
  3	6157	-4	0	-1	-3	1.2
38) O=C(CN1CCCC1c1cccs1)N1CCN(S(=O)(=O)c2cccc(F)c2)CC1 (stereo not drawn)
  .	3358	5	0	4	-7	2.9
39) Cc1ccc(C)c(CNS(=O)(=O)c2c(C(=O)N3CCCC3)c(C)n(C)c2C)c1
  7	4622	11	-1	11	-8	5.6
40) O=C(C1=CC(C2CC2)CC(OCc2ccc(CO)cc2)O1)N1CCN(Cc2ccccc2)CC1 (stereo not drawn)
  .	.	8&7	0&11	0&-7	.	5.1&7.4

Rewritten with bars between the fields: part of the list above
cpd | molecule | BJeLR lethal | Autofluor counter | Mtb hypoxia inh | Mtb hypoxia inh growth | Sa ugtP lethal | PrP 5UTR inh | Sa RN4220 lethal
2 | CCCCn1c(N)c(N(CC(C)C)C(=O)c2ccc(OC)c(S(=O)(=O)N3CCOCC3)c2)c(=O)[nH]c1=O | . | 4013 | 6 | 5 | 5 | -25 | 4.4
3 | Cc1ccc(S(=O)(=O)N/N=C/c2ccccc2O)cc1 | 5 | 3730 | . | . | . | -41 | .
4 | CC(C)CC1Nc2ccc(C(=O)NCCCN3CCCCC3C)cc2NC1=O (stereo not drawn) | 6 | 6299 | 9 | 7 | 7 | -13 | 0.0
5 | CS(=O)(=O)c1ccc(NC(=O)c2ccc3c(c2)S(=O)(=O)N=C2CCCCCN23)cc1 | -5 | 5507 | -9 | 5 | -1 | -6 | -0.5
6 | CCc1noc(C)c1C(=O)N1CCCSC1=Nc1ccccc1 | 6 | ? | 5 | 1 | 9 | -14 | 7.7
7 | CN1CCN(c2ccc(S(=O)(=O)N3CCCCC3)cc2NC(=O)COc2ccc([N+](=O)[O-])cc2)CC1 | 2 | ? | 8 | 0 | -4 | -17 | 5.0

Next part:
Below each compound – BJeLR lethal	Autofluor counter	Mtb hypoxia inh	Mtb hypoxia inh growth	Sa ugtP lethal	PrP 5UTR inh	Sa RN4220 lethal
41) CC1CC(C)CN(S(=O)(=O)c2ccc3c(c2)oc(=O)n3CC(=O)NCc2cccnc2)C1 (stereo not drawn)
  12	4613	1	1	5	-20	9.8
42) O=C(C1CCN(S(=O)(=O)c2cccc3cccnc23)CC1)N1CCN(c2ccc(Cl)cc2)CC1
  8	5882	.	.	15	-2	-0.1
43) CC(NC(=O)c1ccncc1)c1ccc(Cl)cc1Cl (stereo not drawn)
  4	4124	4	-5	9	-10	-2.1
44) CC1(C)Cc2c(cnn2-c2ccccc2)C(=O)/C1=N\NC(=O)c1ccccc1N
  -3	11987	-3	-1	-2	-28	-4.9
45) Cn1nc(C(C)(C)C)cc1C(=O)NN1CCOCC1
  -6	?	5	11	-3	1	-1.8
46) CCOc1ccc(CCNC(=O)Nc2cccc(OC)c2)cc1OCC
  -5	3928	4	8	4	-31	-0.6
47) O=C1CCc2cc(S(=O)(=O)NC(Cc3ccccc3)C(=O)NCC3CCCO3)ccc2N1 (stereo not drawn)
  -2	5727	.	.	1	5	1.3
48) CC(C)NC(=O)c1cc2cc([N+](=O)[O-])ccc2s1
  10	2723	.	.	-5	-15	5.4
49) OC(CCCN1CCCCC1)(c1ccccc1)c1ccc(C(F)(F)F)cc1 (stereo not drawn)
  .	3054	.	.	14	-25	-0.2
50) CS(=O)(=O)Nc1ccc(C(=O)N2CCCCC2)cc1
  10	6656	-9	5	-4	-18	4.2
51) CN1C(c2ccc(F)cc2)=CS/C1=C(/C#N)c1nnc2n1-c1ccccc1SC2
  .	3321	8	9	-8	-20	6.8
52) Cc1ccc(C(CNS(=O)(=O)c2ccc([N+](=O)[O-])cc2)N2CCN(C)CC2)cc1 (stereo not drawn)
  13	4578	6	5	3	-30	3.4
53) Cc1cccc(CCNS(=O)(=O)c2ccc(S(=O)(=O)N3CCCCC3)cc2)c1
  5	8000	8	2	9	-25	3.7
54) CCCNC(=O)NC(=O)CN1CCCC1c1ccc2c(c1)OCCO2 (stereo not drawn)
  -8	6280	-10	5	-5	-27	3.4
55) COC(=O)C1CCN(CCCOc2ccc(CN3CCN(c4ccc([N+](=O)[O-])cc4)CC3)cc2)CC1
  -2	4591	.	.	.	-32	.
56) O=C(CNC(=O)c1cnccc1C(F)(F)F)c1cccc(Cl)c1
  -5	5831	-6	1	-7	-23	-3.1
57) CCOC(=O)C1C2COc3ccccc3C2N2C(=O)CN(Cc3ccc(C)cc3)C(=O)[C@@]12C (stereo partly drawn)
  .	.	1	0	4	.	7.3
58) Cc1cccc(OCCCC(=O)Nc2nccs2)c1
  5	3095	24	-22	-3	-5	-16
59) O=S(=O)(c1cccc(S(=O)(=O)N2CCC(Cc3ccccc3)CC2)c1)N1CCOCC1
  1	4080	2	-4	5	-16	2.9
60) O=C(c1ccc(OC2CCN(Cc3ccccn3)CC2)cc1)N1CCCC(O)C1 (stereo not drawn)
  -2	4264	5	13	6	-25	6.6
61) Cc1ccnc2nc(C(=O)OCC(=O)Nc3ccc([N+](=O)[O-])cc3Br)nn12
  .	5382	2	7	0	1	2.8
62) OCC1(CCOc2ccccc2)CCN(CCCn2cccn2)CC1
  6	3884	12	-6	2	-10	1.3
63) CC(C)Oc1ccc(C2CC(=O)N(c3ccc(N(C)C)cc3)C2=O)cc1 (stereo not drawn)
  -5	3096	-1	11	-4	3	-6.4
64) CC(C)c1onc(C(=O)N2CCCCC2C)c1[N+](=O)[O-] (stereo not drawn)
  5	2752	5	9	-9	-25	6.4
65) O=C(COc1ccc([N+](=O)[O-])cc1)N1CCN(c2nnc(-c3ccccc3)c3ccccc23)CC1
  -1	6229	2	-5	7	3	3.3
66) O=C(Cc1ccc(Br)cc1)N1CCN(c2ccc(F)cc2)CC1
  -3	5224	.	.	9	-15	-2.3
67) CCC(CO)Oc1cc(NCc2ccc(Cl)c(Cl)c2)c2ncn(C(C)C)c2c1 (stereo not drawn)
  .	.	6	4	11	.	-1.4
68) Brc1ccccc1-c1cnco1
  6	3115	-2	7	3	-15	1.4
69) CN(CC(=O)Nc1cccc(F)c1)C(=O)Cn1c(=O)oc2ccccc21
  .	3945	-2	0	0	-18	-0.5
70) COc1ccccc1N1CCN(C(=O)CSc2ncccc2-c2nc3ccccc3[nH]2)CC1
  -8	21668*	-10	6	-26	6	-2.7
71) CC(C)c1cc(=O)oc2c3c4c(cc12)CCCN4CCC3
  -6	4291	8	10	-4	-6	6.2
